Arbovirus anti: antivirals against arbovirus infection, primary screen, cell-based, full library, 10K replicate subset | inhibition, % at 10 µM | arbovirus infection cell-based antiviral screen | 0.37% of 200,000 active;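 active = inhibition from about 30%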;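 also: bluetongue infection of BSR cells; cell survival read as ATP light after 72 h; 0% = infected wells without compound and 100% = uninfected wells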
Mtb bLac sens: beta-lactam sensitization of Mtb H37Rv, H37Rv; M. tuberculosis H37Rv growth with meropenem, percent inhibition; hits of this screen are not shown here; inhibition, % at 25 µM; 0.27% of 330,000 active; AID 434955, 2010;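 active = about 74% or more and at least 40 points above the plate without the antibiotic, then above 30% in a dose series; inconclusive = first-round hits that could not be retested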;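 also: growth measured after seven days incubation then overnight dye step; 0% = bacteria only wells and 100% = bacteria with antibiotic; twin plates without the antibiotic show which effects depend on it; some results filed as inactive read as strong as hits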
Mtb H37Rv: M. tuberculosis H37Rv growth inhibitors, H37Rv strain (AID 1626); M. tuberculosis H37Rv growth inhibition; higher % means a stronger effect; one-dose inhibition, % at 10 µM; IC50 in µM for titrated hits; 0.95% of 220,000 active;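 active = confirmed in a dose series; inconclusive = inhibition above 80% but not taken into the dose series; inactive = below 80% or under 30% at every dose of the series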;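 also: bacteria incubated seven days before Alamar blue readout; 0% = bacteria only wells and 100% = bacteria with antibiotic wells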
YopH PTP inh: YopH tyrosine phosphatase inhibitors, primary screen, biochemical, fluorescence Ex485/Em525; 0.16% of 140,000 active; inhibition, %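 (about 10 µM by stock and volumes)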; AID 898, 2007;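 active = inhibition of 50% or more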;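 also: controls were vehicle for no effect and minimum signal wells for full effect; inactives centre near -20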
RecA intein inh: Mtb RecA intein splicing inhibitors, primary screen, biochemical, fluorescence, HTS | Protein RecA (Mycobacterium tuberculosis (strain ATCC 25618 / H37Rv)), P9WHJ3 | cell-free RecA intein splicing | inhibition, %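 (about 9 µM by stock and volumes)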 | 0.75% of 290,000 active | AID 2221, 2009; in the data active = inhibition above about 30%; inconclusive = no clear call, values can overlap the other calls;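 also: 0% = vehicle wells and 100% = reference inhibitor control wells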
Target sequence (P9WHJ3 whole entry, looked up): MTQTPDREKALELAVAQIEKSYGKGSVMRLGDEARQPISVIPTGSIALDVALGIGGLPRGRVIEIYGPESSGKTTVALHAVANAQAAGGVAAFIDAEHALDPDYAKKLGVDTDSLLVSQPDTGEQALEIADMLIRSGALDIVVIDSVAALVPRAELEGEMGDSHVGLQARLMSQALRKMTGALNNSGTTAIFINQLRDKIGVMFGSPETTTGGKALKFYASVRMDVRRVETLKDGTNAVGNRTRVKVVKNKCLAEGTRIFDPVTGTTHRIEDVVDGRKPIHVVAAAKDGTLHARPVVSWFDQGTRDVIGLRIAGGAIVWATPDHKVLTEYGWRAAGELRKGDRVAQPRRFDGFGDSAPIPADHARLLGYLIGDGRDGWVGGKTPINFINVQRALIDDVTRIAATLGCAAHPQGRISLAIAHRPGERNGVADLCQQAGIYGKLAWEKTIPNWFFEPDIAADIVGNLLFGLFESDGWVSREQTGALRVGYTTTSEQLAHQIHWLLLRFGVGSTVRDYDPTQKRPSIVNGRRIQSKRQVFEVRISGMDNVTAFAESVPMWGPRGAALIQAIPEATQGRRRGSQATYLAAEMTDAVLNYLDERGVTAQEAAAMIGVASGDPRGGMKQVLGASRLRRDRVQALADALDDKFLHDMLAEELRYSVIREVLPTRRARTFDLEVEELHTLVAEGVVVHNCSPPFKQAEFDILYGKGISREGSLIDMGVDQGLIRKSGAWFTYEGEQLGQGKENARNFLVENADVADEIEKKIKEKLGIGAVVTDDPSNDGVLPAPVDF
Arbovirus anti repeat: second read-out of Arbovirus anti, no call of its own (marks repeat the call); inhibition, %; measured here: 10K subset replicate screen; many hits read low in the repeat;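 first of two repeat runs on a subset; 0% = infected and 100% = uninfected wells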
An asterisk follows results filed as active; ? = inconclusive; . = no result given.

SMILES	Arbovirus anti	Mtb bLac sens	Mtb H37Rv	YopH PTP inh	RecA intein inh	others
COc1ccc(CN=C(C#N)C2=C(O)c3ccccc3C2=O)cc1	.	8.3	-2.9%	.	0.3
Cc1cc(C(C)(C)C)oc1C(=O)N(CC(=O)NC1CCCC1)Cc1ccc(F)cc1	2.0	2.0	0.1%	-26.0	1.5
COc1ccc(CSCC(=O)NN=C2CCN(C)CC2)cc1	7.3	-3.1	-4.5%	.	0.5
NC(N)=NS(=O)(=O)c1ccc(NC(=S)NC(=O)c2ccc(Br)cc2)cc1	-4.3	2.9	-4.6%	.	-0.3
CCOc1ccc(CO/N=C/c2c(C)[nH]c(=O)[nH]c2=O)cc1	-0.1	-4.9	5.9%	.	4.7
CC1(O)C(=O)C=C2C=C(C3CC3)OC=C2C1=O (stereo not given)	.	4.8	-1.8%	.	4.7
N#Cc1ccc(C(=O)Nc2cc(S(=O)(=O)Nc3ccc(Cl)cc3)ccc2N2CCCCC2)cc1	26.8	-0.5	-3.4%	-15.7	2.1
COc1ccccc1NC(=O)C1CCCN(S(=O)(=O)c2cccc3nsnc23)C1 (stereo not given)	-1.1	-0.3	-9.4%	6.5	-4.5
COc1ccccc1NC(=O)C(C)OC(=O)/C=C/c1ccc2ccccc2n1 (stereo not given)	.	95.5	.	.	-0.9
Cc1ccc(NNC(=O)C2CCC2)cc1C	.	91.4	41.4%	.	0.8

The list goes on (5 carried over from the part before).
SMILES	Arbovirus anti	Mtb bLac sens	Mtb H37Rv	YopH PTP inh	RecA intein inh	others
CC1(O)C(=O)C=C2C=C(C3CC3)OC=C2C1=O (stereo not given)	.	4.8	-1.8%	.	4.7
N#Cc1ccc(C(=O)Nc2cc(S(=O)(=O)Nc3ccc(Cl)cc3)ccc2N2CCCCC2)cc1	26.8	-0.5	-3.4%	-15.7	2.1
COc1ccccc1NC(=O)C1CCCN(S(=O)(=O)c2cccc3nsnc23)C1 (stereo not given)	-1.1	-0.3	-9.4%	6.5	-4.5
COc1ccccc1NC(=O)C(C)OC(=O)/C=C/c1ccc2ccccc2n1 (stereo not given)	.	95.5	.	.	-0.9
Cc1ccc(NNC(=O)C2CCC2)cc1C	.	91.4	41.4%	.	0.8
CCN(CC)C(=O)Oc1ccc(Br)c2ccccc12	-6.7	18.0	12.1%	-30.7	10.5
CC(=O)c1sc(NC(=O)C(C)Oc2ccc3c(C)cc(=O)oc3c2)nc1C (stereo not given)	.	-8.2	.	.	-1.0
CC(C)(CN1CCN(Cc2ccccc2)CC1)NS(=O)(=O)c1ccc(Cl)cc1	.	2.6	3.6%	.	0.1
O=C(NCCNc1nccc(C(F)(F)F)n1)c1cccc(C(F)(F)F)c1	.	-0.7	2.0%	.	-0.3
COc1ccccc1OCCn1cc(/C=C(\C#N)C(=O)NCc2ccco2)c2ccccc21	-4.3	3.5	5.3%	-37.5	-0.8
CC(C)(C)OC(=O)NC(Cc1ccccc1)C(=O)O (stereo not given)	.	4.3	5.7%	.	-0.8
COc1ccc(OC)c(C(=O)c2coc3ccc(OC)cc23)c1	-11.9	-7.2	10.5%	-16.9	-3.2
Cc1cccc(NC(=O)CSCc2cc(=O)n3nc(C4CC4)sc3n2)c1	.	4.7	.	.	-3.8
COc1ccc(C2=NN(C(=O)CCC(=O)O)C(c3ccc(OC)c(OC)c3)C2)cc1 (stereo not given)	.	-21.6	.	.	0.0
CC(=O)c1ccc(N2CCN(C(=O)COc3ccc4c(c3)CCC4)CC2)cc1	.	-15.7	.	.	0.4
COc1ccc(NC(=S)N2CCN(C(=O)c3ccccc3)CC2)cc1	1.8	1.8	-2.4%	.	1.3
CCCCN(CCCC)Cc1ccc(C(=O)NN)o1	1.8	-1.1	7.2%	.	1.3
COc1ccc(NC(=O)C(=O)NCC(c2ccco2)N2CCc3ccccc3C2)cc1 (stereo not given)	.	-1.0	.	.	-3.0
CN(C)/C(CN1CCOCC1)=C1\N=C(c2ccccc2)OC1=O	4.8	-6.7	0.9%	-22.7	0.4
CCOC(=O)c1ccccc1-c1csc(N)n1	2.4	-9.8	5.4%	.	3.2
Cc1ccc(C)c(NC(=O)CN(C)S(=O)(=O)c2cccc3cccnc23)c1	.	-8.9	-7.1%	.	0.2
CCOC(=O)c1c(C)n(C)c2ccc(O)c(S(=O)(=O)c3ccccc3)c12	-3.7	-14.4	-4.7%	-23.8	-17.2
NNC(=O)c1ccc(Cn2cccn2)o1	.	-5.8	?	.	-1.6
O=C(COc1ccccc1)Nc1ccc(-c2nnc(-c3ccco3)o2)cc1	-14.4	-0.3	-6.7%	-46.7	5.9
CN1C(C(=O)Nc2cccc(O)c2)=CC(c2cccs2)=NS1(=O)=O	.	2.9	.	.	2.5
CCCN1C2CCCC1CC(NC(=O)NC1CCCCC1)C2 (stereo not given)	1.9	-1.9	-2.7%	-30.6	-4.5
CCOC(=O)COc1cccc2c(=O)n(CC(N)=O)ccc12	.	-6.9	-11.2%	.	0.6
CC1=CC2=NC(=O)CC(C)(C(=O)N(CC(=O)NC(C)(C)C)Cc3cccs3)N2C=C1 (stereo not given)	1.1	0.8	-5.0%	-21.8	-1.4
Cc1ccc(-c2nc3ccc(C)cn3c2CC(=O)N(C)C)cc1	.	3.0	-8.9%	.	-4.4
Cc1ccc(NC(=O)CSc2nc3ccccc3nc2N2CCOCC2)c(C)c1	.	-6.4	.	.	-1.2
Cc1ccc(C(=O)NCc2ccco2)cc1Br	-2.7	12.1	6.5%	1.5	4.0
CCC(=O)N1CCc2cc(S(=O)(=O)NC(CC(C)C)C(=O)N3CCc4ccccc43)ccc21 (stereo not given)	-6.2	-3.2	-12.8%	-9.4	.
O=C(CNc1cccc2ccccc12)N/N=C/c1ccc([N+](=O)[O-])o1	-35.0	99.9	?	-2.1	2.1
CC1CCCN(C(=O)c2ccc(N3CC4CC(C3)c3cccc(=O)n3C4)c([N+](=O)[O-])c2)C1 (stereo not given)	-8.6	-2.2	-0.5%	-7.1	0.6
CCOC(=O)c1cc(-c2ccc3c(c2)OCCO3)n[nH]1	6.6	2.9	-2.1%	.	-1.1
O=C(c1ccccc1)c1cn(CC(=O)N2CCCc3ccccc32)c2ccccc12	6.6	-2.2	-1.2%	-7.1	7.3
COc1cccc(Oc2cn[nH]c2-c2ccc(OCC(=O)NN)cc2O)c1	.	6.4	.	.	4.6
Cc1cc(NC(=O)CSCC(=O)OC(C)C(=O)N(C)Cc2ccccc2)no1 (stereo not given)	.	-8.3	.	.	1.2
COc1ccc(S(=O)(=O)N2CCCC2)cc1C(=O)N1CCOCC1	4.3	0.2	8.3%	.	-0.9
CN(C(=O)COc1cc(=O)n(C)c2ccccc12)c1ccc(Cl)cc1	-7.6	-8.2	-10.4%	-17.4	-1.8
O=C(CCCN1C(=O)/C(=C/c2ccco2)SC1=S)Nc1cccc(C(=O)O)c1	.	2.3	4.4%	.	9.1
Cc1ccc(-c2nnc(N(C)C(=O)c3ccncc3)s2)cn1	-0.8	-1.9	-5.8%	-50.7	-1.4
Cc1ccc2c(c1)N(CC(=O)NCCCN1CCCCC1C)C(=O)c1cccnc1O2 (stereo not given)	.	?	.	.	-2.5
O=C(CCc1nnc(Cc2ccc3c(c2)OCO3)o1)N(CC1CCC1)CC1CCCO1 (stereo not given)	.	-2.6	-7.4%	.	-1.8
O=C(CN1C(=O)S/C(=C/c2cccs2)C1=O)N1CCOCC1	0.7	-6.6	-18.4%	-21.1	-1.7
O=C(N/N=C/c1ccc2nccnc2c1)c1ccccc1O	.	-7.1	-1.8%	.	0.1
FC(F)(F)c1cccc(/C=N/NC(=S)NC2CCCCC2)c1	6.7	3.7	10.9%	.	0.6
COc1cc(Cl)c(C)cc1NC(=S)NN	-10.7	6.6	0.1%	.	1.2
CCOc1cc(C(c2c(C)[nH][nH]c2=O)c2c(C)[nH][nH]c2=O)ccc1OC(=O)c1cccc([N+](=O)[O-])c1	-6.7	20.6	6.3%	-7.3	92.1*
COc1ccc(N=Nc2n(C)c3ccccc3[n+]2C)cc1	.	.	?	.	-1.5
Cc1cc(C(=O)CSc2nc3ccccc3n2CCC#N)c(C)n1Cc1cccs1	-3.1	?	-5.8%	-14.7	3.4
CCOC(=O)c1c(-n2c(C)cc(C=C3C(=O)NC(=O)NC3=O)c2C)sc2c1CCCC2	-23.5	2.0	.	3.0	-14.5
Cc1ccnc(N2CCCC(C(=O)Nc3nnc(C)s3)C2)n1 (stereo not given)	14.1	-1.1	-4.0%	-32.7	1.8
COc1ccc(C(=O)N(C)CC(O)c2ccccc2)cc1OC1CCN(C(C)=O)CC1 (stereo not given)	.	7.1	.	.	-0.4
OCCC1CN(Cc2cnc(N3CCCC3)s2)CCN1Cc1ccccc1 (stereo not given)	6.5	10.5	5.5%	.	1.4
Next part:
SMILES	Arbovirus anti	Mtb bLac sens	Mtb H37Rv	YopH PTP inh	RecA intein inh	others
Cc1cc(NC(=O)Cc2ccccc2C)no1	.	-1.0	.	.	0.3
O=C(NCC(O)c1ccccc1)Nc1cccs1 (stereo not given)	.	-6.2	.	.	-2.1
COc1cc2c(cc1OC)CN(C(=O)c1cc(S(=O)(=O)N3CCOCC3)ccc1Cl)CC2	4.4	1.2	-2.5%	-47.4	-0.4
CCc1nnc(NS(=O)(=O)c2ccc(N/C=C\C(=O)c3ccc(C)cc3)cc2)s1	22.1	94.2	5.1%	-24.0	-36.1
Clc1ccc(-c2nc3n(n2)Cc2ccccc2-3)cc1	-11.5	-2.1	-1.2%	6.4	-0.8
COc1ccc(S(=O)(=O)N(CC(N)=O)C2CCCCC2)cc1Cl	0.3	-4.1	-4.6%	-22.2	-3.1
Cc1ccc(-n2c(O)c(/C=N/N3CCCCC3c3cccnc3)c(=O)[nH]c2=S)cc1 (stereo not given)	-0.8	-6.7	4.7%	-21.2	0.3
Cc1cc(-c2nnc(SCC(=O)Nc3ccccc3F)n2N)n[nH]1	.	5.7	.	.	14.3
Cn1c(=O)[nH]c(=O)c2c1nc(CN1CCOCC1)n2Cc1ccc(F)cc1	0.7	2.8	7.5%	-46.9	.	Arbovirus anti repeat=6.6
CCc1cc2c(=O)oc(-c3ccc(F)cc3)nc2s1	.	92.9	.	.	5.6
CN(C)CCNC(=O)Nc1ccc([N+](=O)[O-])cc1	1.1	1.6	-3.2%	.	0.7
CC(=O)c1c(N2CCCCC2)nc(=S)n(Cc2ccccc2)c1C	11.9	-8.5	-4.5%	-13.4	3.8
Cc1ccc(-n2nnnc2SCC(=O)Nc2ccc(N3CCN(C)CC3)cc2)c(C)c1	.	?	.	.	2.0
Cc1nnc(Nc2ccccn2)c2ccccc12	-2.4	-2.1	.	-23.7	-8.7
O=C(N/N=C\c1cccc(Br)c1)c1ccccc1-n1cccc1	-2.8	-1.8	1.4%	-28.5	0.0
CCc1c(C)sc(NC(=S)N2CCN(CC)CC2)c1C(=O)OC	-2.1	98.0	?	.	.
O=C(NC1CCCCC1)n1c(=O)oc2cc(S(=O)(=O)N3CCCCC3)ccc21	-2.2	5.2	1.8%	-11.2	1.6
CC(=O)N1CCCN(C(=O)c2ccc3nc(Cc4cccc(Cl)c4)oc3c2)CC1	.	-6.6	.	.	0.5
O=C(Nc1nnc(SCc2ccccc2)s1)c1ccco1	21.4	-7.8	-9.4%	-18.1	1.2
O=C(Nc1ccncc1)c1ccc(Br)cc1	.	4.6	.	.	0.2

Gathered by group, the compounds so far with a tert-butyl group (three)
SMILES	Arbovirus anti	Mtb bLac sens	Mtb H37Rv	YopH PTP inh	RecA intein inh	others
Cc1cc(C(C)(C)C)oc1C(=O)N(CC(=O)NC1CCCC1)Cc1ccc(F)cc1	2.0	2.0	0.1%	-26.0	1.5
CC(C)(C)OC(=O)NC(Cc1ccccc1)C(=O)O (stereo not given)	.	4.3	5.7%	.	-0.8
CC1=CC2=NC(=O)CC(C)(C(=O)N(CC(=O)NC(C)(C)C)Cc3cccs3)N2C=C1 (stereo not given)	1.1	0.8	-5.0%	-21.8	-1.4

(next part)
SMILES	Arbovirus anti	Mtb bLac sens	Mtb H37Rv	YopH PTP inh	RecA intein inh	others
CCc1nonc1NC(=O)c1oc2ccc(F)cc2c1C	.	-6.2	.	.	0.0
CCc1cc(CN2CCOCC2)c(NC(=O)c2ccccc2)s1	-9.6	-6.7	0.6%	.	1.9
O=C(CC(NS(=O)(=O)c1ccc(Cl)cc1)c1ccco1)NC1CCCC1 (stereo not given)	1.5	-5.6	3.9%	-24.8	0.6
COc1ccccc1CN1CC(C(=O)NCc2nc3ccccc3n2C)CCC1=O (stereo not given)	.	4.1	.	.	-0.9
O=C(C1=C[C@H](C2CC2)C[C@H](OCCCCO)O1)N1CCN(Cc2ccccc2)CC1	0.6	-5.5	5.2%	.	-2.4
C=CCn1c(O)c(C(C)=NC(C)c2ccccc2)c(=O)[nH]c1=O (stereo not given)	.	-3.1	11.8%	.	-0.5
CCNc1c(NCC)c(=O)c1=O	.	-9.8	1.3%	.	-0.7

A portion of the library. The share of hits here may be higher or lower than overall.
